# Biofilm kill mix – clotrimazole potentiators killing C. albicans biofilm, primary screen, 4-compound mixtures | hit rate 0.02% among 120,000 | AID 1242, 2008 | inhibition, % at 7.6 µM | C. albicans biofilm persisters + clotrimazole, fluorescence viability; primary screen in compound mixtures of four per well;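 active = inhibition above 30.3% in the primary screen of four-compound pools, then above 30% when the compound was retested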;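 also: compounds exposed to preformed 24 h biofilms for 48 h; the number belongs to the whole pool; some results filed as inactive read as strong as hits; inactives centre near 12; 0% = biofilm with clotrimazole alone and 100% = kill control; retested singly at about 60 µM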
#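 Assay system: C. albicans biofilms / Medium: RPMI/MOPS medium, pH 7.0 / Schedule: biofilm formation 24 h, compound exposure 48 h, 37 °C / Measured by: Alamar Blue fluorescence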
# * marks the source's active call; other numbers are inactive results. Some of the compounds tested; count on the stated rates, not on these rows.
SMILES,Biofilm kill mix
COC(=O)c1ccc(CO/N=C/c2ccc(OC)cc2)o1,7
Cc1ccc(C(=O)O)cc1-n1c(C)cc(C=O)c1C,18
NS(=O)(=O)c1cc(C(=O)OCC(=O)Nc2ccccc2[N+](=O)[O-])ccc1Cl,30
Cc1nn(-c2ccccc2)c(Cl)c1/C=N/NS(=O)(=O)c1ccc(Br)cc1,14
COCCNC(=O)NC12CC3CC(CC(C3)C1)C2,1
Cc1ccc2c(C)nc(/N=C(\N)NC(=O)N3c4ccccc4Sc4ccccc43)nc2c1,6
CC(C)(C)c1cc(C(=O)NNc2cccc(Cl)c2)n(Cc2ccccc2)n1,19
CN=C(Nc1ccc(C(=O)OC)s1)c1ccccc1,15
COc1cccc(NC(=O)c2ccccc2C(F)(F)F)c1,16
COC(=O)Cc1c(C(=O)OC)nnn1-c1cccc(C(F)(F)F)c1,9
Cn1ncnc1SCc1cn2cccnc2n1,7
CC(C)(C)c1ccc(-c2noc(C(=O)NN)n2)cc1,9
CCCCC(=O)NC(=S)Nc1nnn(CCC)n1,2
O=C(CNC(=O)c1cccc(OC(F)F)c1)OCC(=O)c1ccccc1,8
COc1ccc(NC(=O)c2nn(C34CC5CC(CC(C5)C3)C4)cc2[N+](=O)[O-])cc1,-6
CCn1ccnc1CNC(=O)CC1C(=O)NCCN1Cc1ccc(OC)cc1OC (configuration not stated),20
Nc1nc(N)c(N=Nc2ccc(Cl)cc2)c(=O)[nH]1,12
C=CCn1c(COc2ccc(OC)cc2)nnc1SCn1nnc2ccccc2c1=O,10
Cc1cc(C(=O)Nc2ccc(Cl)cc2)c(C)n1-c1ccccc1,5
CCCCOc1ccc(/C=C/C(=O)NC2=Nc3ccccc3NC(C)=C2C(=O)OCC)cc1OC,8
O=C(O)/C=C/c1cccc(NC(=O)c2ccccc2)c1,17
Cc1ccccc1C(=O)NC1CCN(Cc2nnnn2C2CCCC2)CC1,-3
COCCCN1CN(Cc2ccccc2)CNC1=S,11
CCNc1nc(NCC)n2c(SCC(=O)NC34CC5CC(CC(C5)C3)C4)nnc2n1,15
O=C(O)c1cccc(-c2nnn(Cc3ccccc3Cl)n2)c1,9
# Following part:
SMILES,Biofilm kill mix
O=C(c1ccccc1)N(Cc1nc2ccccc2c(=O)[nH]1)C1CCCC1,9
CNC(=S)NC12CC3CC(CC(C3)C1)C2,8
O=C(NCCc1ccccn1)c1cccc(S(=O)(=O)N2CCc3ccccc32)c1,5
COC(=O)c1ccc(/C=N/NC(=O)C(=O)NCc2ccccc2)cc1,7
CCc1ccc(S(=O)(=O)NCc2csc(C)n2)s1,2
CSc1nc(-c2ccccc2)nc(NC(=O)C(C)C)c1C(C)=O,24
O=C(COC(=O)c1ccccc1O)Nc1cccc(S(=O)(=O)NC2=NCCCCC2)c1,5
CC(C)N1CCC(N2CCN(C3CCCCC3)CC2CCO)CC1 (configuration not stated),50
CC(=O)Nc1ccc2nc(NC(=O)c3cccnc3)sc2c1,29
CN(c1cccc(Cl)c1)S(=O)(=O)c1cccc(C(=O)Nc2ccc3c(c2)CCC3)c1,7
CCCN1CCC(NC(=S)Nc2ccc(C(=O)OCC)cc2)CC1,15
COc1ccc(-c2cn[nH]c2-c2ccc(OCc3ccccc3)cc2O)cc1,23
COc1ccc(/C=N/NC(=O)CN(C2=NS(=O)(=O)c3ccccc32)c2ccccc2)cc1,11
C/C(Cc1nnn(-c2cc(C)on2)n1)=N\O,19
S=C(NN=C(C1CC1)C1CC1)Nc1ccccc1,10
Cc1c(Br)c(C(F)(F)F)nn1CC(=O)NCc1ccco1,16
COc1cc(C2=NOC(C(=O)Nc3cc(C)on3)C2)cc(OC)c1OC (configuration not stated),24
O=C(CSc1ccccc1C(=O)NCc1ccccc1)NC1CCCCCCC1,8
C[C@H](NC(=O)c1nc[nH]c1C(=O)N[C@@H](CCCCNC(=O)OC(C)(C)C)C(=O)OC(C)(C)C)c1ccccc1,14
CCNc1nc(NCC)n2c(SCC(=O)N(CC)C3CCCCC3)nnc2n1,14
COCCn1c(=O)[nH]c(=O)c2c(C(F)(F)F)cc(-c3cccs3)nc21,-2
CCN(CC)S(=O)(=O)c1ccc(Cl)c(NC(=O)COC(=O)c2cc(-c3ccccc3Cl)nc3ccccc23)c1,15
Brc1cccc(OCCCCN2CCCCC2)c1,12
Cc1cc(/C=N/O)c(C)n1-c1ccc(Br)cc1,13
CC(C)NC(=O)C1CCN(C2CCN(C(=O)c3cc4c(s3)CCCCC4)CC2)CC1,8
# More records follow:
SMILES,Biofilm kill mix
COC(=O)Nc1ccc([N+](=O)[O-])cc1OC,15
O=c1c2sccc2[nH]c(=S)n1Cc1ccccc1,6
Nn1c(SCC(=O)Nc2nc3ccccc3s2)nncc1=O,5
COCCN1C(=O)/C(=C/c2ccc(OCc3ccc(C(=O)O)cc3)c(OC)c2)SC1=Nc1ccccc1,15
COc1ccc(OCC(=O)N2c3ccc(C)cc3C3CN(C)CCC32)cc1 (configuration not stated),26
CC(C)C(=O)NNC(=O)c1cc2sccc2s1,16
COc1ccccc1C/C(N)=N/OC(=O)c1ccco1,22
CC(C)C[C@@H](CN(C)N=O)N(C[C@H](Cc1ccccc1)N(CCc1ccccc1)N=O)N=O,15
Nc1c(O)ccc2c1C(=O)c1ccccc1C2=O,21
CCNC(=S)N1CCN(CC(=O)Nc2ccc(OC)cc2)CC1,4
COc1ccc(Cn2c(=O)[nH]c3cc(C(=O)N4CCN(c5ccccn5)CC4)ccc3c2=O)cc1,24
COc1cccc(OC)c1C(=O)NC(=S)Nc1ccc(N2CCOCC2)c(Cl)c1,2
CCCCOC(=O)Nc1nnc(/C=C/c2ccc(OC)cc2)s1,13
CC(C)CCNC(=O)c1ccc(-c2ccccc2)cc1,2
CCC(C)Nc1nc(Cl)nc(NCCOc2ccccc2)n1 (configuration not stated),18
COc1cccc(C(=O)Nc2nc(-c3ccncc3)cs2)c1,26
CC1=C(C(=O)N2CCOCC2)C(c2c(C)cc(C)cc2C)NC(=S)N1 (configuration not stated),-2
CC(=O)Nc1ccc2nc(NC(=O)COc3ccc(C)cc3)sc2c1,18
CN1C(=O)/C(=C/c2cccc(Cl)c2)Sc2ccc(C(=O)NCc3cccnc3)cc21,13
CN1C(=O)C(CC(=O)O)S/C1=N\N=C\c1ccc(O)cc1O (configuration not stated),23
Cc1ccc(C(=O)Nc2ccn(Cc3ccc(F)cc3)n2)o1,15
CC(=O)Nc1ccc(NC(=O)C2CCCN2C(=O)Nc2ccccc2[N+](=O)[O-])cc1 (configuration not stated),19
CC(C)(Cc1ccc(O)cc1)NC(=O)CC(=O)N=Nc1c(O)[nH]c2cc(Br)ccc12,23
COc1cc(NS(=O)(=O)c2ccc(N/C=C\C(=O)c3ccc(F)cc3)cc2)nc(OC)n1,3
CNCc1ccccc1Sc1cc(O)ccc1O,23

# As a working copy, 4 of the compounds above.
SMILES,Biofilm kill mix
COC(=O)Nc1ccc([N+](=O)[O-])cc1OC,15
O=c1c2sccc2[nH]c(=S)n1Cc1ccccc1,6
Nn1c(SCC(=O)Nc2nc3ccccc3s2)nncc1=O,5
COCCN1C(=O)/C(=C/c2ccc(OCc3ccc(C(=O)O)cc3)c(OC)c2)SC1=Nc1ccccc1,15

# (list continues)
SMILES,Biofilm kill mix
CCc1nc2ccccc2nc1N1CCN(S(=O)(=O)c2ccccc2)CC1,23
Cc1ccccc1Cn1ccc(NC(=O)c2cc3ncc(Br)cn3n2)n1,7
O=C(Cn1cnc2cc([N+](=O)[O-])ccc2c1=O)Nc1ccc(Br)cc1,6
CC1CN(C(=O)C2(C)CC2(Cl)Cl)CC(C)O1 (configuration not stated),13
COC(=O)c1sccc1NC(=O)COc1ccc(F)cc1Cl,11
O=C(OCC(=O)N1CCc2ccccc21)c1ccccn1,9
NC(=O)CSc1cn(Cc2ccc(F)cc2)c2ccccc12,15
COc1ccc(CN2CCNC(=O)C2CC(=O)N(Cc2nccn2C)C(C)C)c(OC)c1 (configuration not stated),8
Cc1ccc(S(=O)(=O)N(C)c2ccc(C(=O)NCc3ccccn3)cc2)cc1,3
CCOc1ccc(NC(=O)CN(C)CC(=O)NC(C)c2ccccc2)cc1OCC (configuration not stated),3
Cc1nn(C(C)C(=O)N/N=C/c2ccc(N(C)C)cc2)c(C)c1[N+](=O)[O-] (configuration not stated),26
COc1cc(C)c(Br)cc1S(=O)(=O)NCc1ccncc1,10
Oc1c(I)cc(Cl)c2cccnc12,14
CC(C)(C)OC(=O)CNC(=O)c1[nH]cnc1C(=O)N[C@@H](Cc1ccccc1)C(=O)OC(C)(C)C,15
Cc1[nH]c2ccccc2c1C(=O)CSC(=S)N1CCN(C)CC1,4
CCOc1ccc2ccccc2c1C1NC(=S)N(C)C(C)=C1C(=O)OC (configuration not stated),12
Cc1ccc(N2CCN(/N=C/C(Cl)=C/c3ccccc3)CC2)cc1,15
Cc1ccc(-n2cc(CNC(C)Cn3cncn3)c(-c3ccc(F)cc3)n2)cc1 (configuration not stated),14
N/C(=N\OS(=O)(=O)c1ccc(Cl)cc1)c1cccnc1,8
Clc1cccc(Cl)c1-c1noc(CN2CCOCC2)n1,14
O=c1oc2ccccc2c(Nc2ccc(F)cc2)c1[N+](=O)[O-],14
CC1CCN(CCCNC(=O)c2ccc3c(=O)n(Cc4ccc(Cl)cc4)c(=S)[nH]c3c2)CC1,8
[O-][n+]1ccccc1SC/C=C/c1ccccc1,4
Clc1ccc(-c2cnn3c(-c4ccncc4)ccnc23)cc1,10
N=C(c1cccc([N+](=O)[O-])c1)N1CCCCCC1,13

# Quoted at random: 2 records from the list, in no set order.
SMILES,Biofilm kill mix
Cc1cc(/C=N/O)c(C)n1-c1ccc(Br)cc1,13
Cc1ccc(-n2cc(CNC(C)Cn3cncn3)c(-c3ccc(F)cc3)n2)cc1 (configuration not stated),14

# A draw from above in order of heavy-atom count, rising.
SMILES,Biofilm kill mix
[O-][n+]1ccccc1SC/C=C/c1ccccc1,4
O=c1oc2ccccc2c(Nc2ccc(F)cc2)c1[N+](=O)[O-],14
CCOc1ccc2ccccc2c1C1NC(=S)N(C)C(C)=C1C(=O)OC (configuration not stated),12
CCc1nc2ccccc2nc1N1CCN(S(=O)(=O)c2ccccc2)CC1,23
CCOc1ccc(NC(=O)CN(C)CC(=O)NC(C)c2ccccc2)cc1OCC (configuration not stated),3

# The list continues.
SMILES,Biofilm kill mix
O=C(NC(=S)Nc1cccc2[nH]ncc12)c1ccccc1,8
O=c1ccc(-c2ccccc2)no1,17
COc1ccc(/C=C/CN2CCCC(CCC(=O)NCc3ccc(F)c(F)c3)C2)cc1 (configuration not stated),19
Nc1cc(C(F)(F)F)cc2c1SCC(=O)N2,6
CC(C)(C)n1nnnc1C(c1ccc2ncccc2c1)N1CCC(O)CC1 (configuration not stated),11
COc1ccc(Nc2nc(CN3CCOCC3)nc3sc4c(c23)CCC(C)C4)cc1OC (configuration not stated),3
COc1ccc(/C=C2\SC(N3CCc4ccccc4C3)=NC2=O)cc1OC,9
c1ccc(-c2cnn3c(-c4ccccc4)c(-c4ccccc4)nc3n2)cc1,8
Cc1ccc(O)c(N=Cc2ccc(C)s2)c1,2
CCOc1cc(N2CCOCC2)c(OCC)cc1NC(=O)c1cc(C)cc(C)c1,14
Cc1ccc(NC(=O)C2CCN(C(=O)NC3CCCCC3)CC2)c(C)c1,11
Cc1cc(-c2ccccc2C(=O)Nc2ccccc2O)on1,13
c1ccc(-c2nccc(-c3ccc4c(c3)OCO4)n2)cc1,12
O=c1c2cc(NC(=S)N3CCC(N4CCCCC4)CC3)ccc2nc2n1CCCCC2,1
O=C(O)c1cccc(-c2nnn(Cc3ccccc3)n2)c1,13
CCOC12CC(C)(C)CC(C)(CC3=C1C(=O)CC(C)(C)C3)C2 (configuration not stated),7
C[N+]1(CN2C(=O)C3C4C=CC(C4)C3C2=O)CCCCC1 (configuration not stated),10
O=C(CSCc1cnn(-c2ccccc2)c1-n1cccc1)NCc1cccnc1,22
COc1cccc(C(=O)NNC(=S)NC2CCCCC2)c1,13
COc1ccc(CC(=O)NCc2ccc3c(c2)cc(C)n3C)cc1OC,13
Cc1ccc(OC(=O)c2cc(C)nn2C(C)(C)C)cc1,9
COc1ccc(NC(=S)N(CCc2c(C)[nH]c3ccc(C)cc23)Cc2ccco2)cc1,5
O=C(O)C1OC(Oc2cc3oc(-c4ccccc4)cc(=O)c3c(O)c2O)C(O)C(O)C1O (configuration not stated),1
COc1cccc(-n2nnc3c(=O)n(CC(=O)N4CCC(C)CC4)cnc32)c1,14
Cc1ccc(Sc2ccc(CO)cc2[N+](=O)[O-])cc1,18
# The results go on.
SMILES,Biofilm kill mix
CCO[C@H]1OC(C(=O)NCc2nc3ccccc3[nH]2)=C[C@@H](c2ccccc2)[C@@H]1CCCO,5
COc1ccc(N=c2scc(-c3ccc(OC)cc3)n2CCO)cc1,7
Cc1ccc(/C=N/NC(=O)CNC(=O)c2ccc(C)c([N+](=O)[O-])c2)o1,6
CCc1ccc(NC(=S)NC(=O)c2c(-c3ccccc3Cl)noc2C)cc1,15
COc1ccc(-c2nncnn2)cc1,18
O=C(Nc1ccccc1)N1CCCc2ccccc21,17
COc1cccc(Nc2nc(N)c([N+](=O)[O-])c(NCc3ccco3)n2)c1,23
COc1cccc(C(=O)N/N=c2\oc3c(OC)cccc3cc2C(=O)NCc2ccccc2)c1,-2
O=C(c1coc(=O)c(Br)c1)N1CCC(C(O)(c2ccccc2)c2ccccc2)CC1,1
COc1ccc(-c2nc(NC(=O)CCNC(=O)c3ccco3)sc2C)cc1,10
O=C(O)COCC(=O)Nc1ccc(Oc2ncnc3cc(Cl)ccc23)nc1,19
Cc1ccc(C(C(=O)NC(C)(C)C)N(C(=O)c2csnn2)C2CC2)cc1 (configuration not stated),18
CC(C)(C)OC(=O)NCCc1n[nH]c(=S)o1,7
Fc1ccc(C2=NN(c3ccccc3)C(c3ccco3)C2)cc1 (configuration not stated),24
Cc1cccc(C(=O)NC(NC(=S)Nc2ccc(S(N)(=O)=O)cc2)C(Cl)(Cl)Cl)c1 (configuration not stated),3
COC(=O)C1=C(C(=O)OC)[C@@H]2N(C)c3ccc(OC)cc3[C@@]23C[C@@H](C(=O)OC)N(S(=O)(=O)c2ccc([N+](=O)[O-])cc2)C3=N1,7

# Assay outcomes: PubChem, PCMD
